# From PubChem BioAssay
# VDR inhibitor: Inhibitors of the vitamin D receptor (VDR): qHTS; hit rate 0.93% among 400,000; Potency, µM, without a hit: max response, negative = inhibition, hits mostly inhibitors; VDR-SRC2-3 peptide fluorescence polarization, 2 h; Vitamin D3 receptor (Homo sapiens), P11473; active = well fitted inhibition curve with a large enough effect; inconclusive = small, poorly fitted or top-dose-only effect, or another doubt; inactive = no such curve, though single readings can be large or run the other way; also: series mostly up to about 120 µM
# Target sequence (P11473 whole entry, looked up): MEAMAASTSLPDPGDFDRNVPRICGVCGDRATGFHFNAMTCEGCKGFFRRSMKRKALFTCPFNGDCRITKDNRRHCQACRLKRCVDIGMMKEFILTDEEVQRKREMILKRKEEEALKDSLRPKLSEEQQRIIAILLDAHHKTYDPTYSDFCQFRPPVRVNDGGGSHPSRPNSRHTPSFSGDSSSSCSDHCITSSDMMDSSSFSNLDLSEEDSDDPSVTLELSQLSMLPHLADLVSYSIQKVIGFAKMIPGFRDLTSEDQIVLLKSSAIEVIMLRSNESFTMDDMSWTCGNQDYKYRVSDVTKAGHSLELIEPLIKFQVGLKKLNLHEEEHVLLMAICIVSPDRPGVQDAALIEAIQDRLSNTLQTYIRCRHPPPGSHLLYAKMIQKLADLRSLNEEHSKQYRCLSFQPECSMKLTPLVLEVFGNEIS
#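 Inhibition of the VDR/SRC2-3 peptide interaction is quantified by fluorescence polarization. Compounds (23 nl, pintool) incubate with the reagents for 2 hours at ambient room temperature.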
# * marks the source's active call; other numbers are inactive results; ? = inconclusive; & = joins results of further samples; [ ] = another dose, or the depositor's remark. % is scaled to controls: 0 for no effect and ±100 for the full control effect; potency is read from the fitted curve at half-maximal effect. Only part of the results is shown; rates above refer to the full screens.
SMILES,VDR inhibitor
C#CCOCCOCCOCCNc1nc(N2CCN(C(=O)C(Cc3cc4ccccc4[nH]3)n3cc(C(N)C(C)CC)nn3)CC2)nc(N2CCN(C(=O)C(Cc3cc4ccccc4[nH]3)n3cc(C(N)C(C)CC)nn3)CC2)n1 (configuration not stated),38%[activator]
O=C(C1CCCN(Cc2cccnc2)C1)N1CCCCC1 (configuration not stated),15%
COc1cc(OC)c(C#N)c(S(=O)Cc2ccccc2)c1 (configuration not stated),-11%
CCCc1nc(SCC(=O)Nc2nnc(CC)s2)c2c(C)c(C)sc2n1,5%
COC(=O)c1sc(NC(=O)C(C)c2ccccc2)nc1C (configuration not stated),-7%
COc1cccc(NC(=O)c2sc3nc(C)c(C(=O)Nc4ccc(C)cc4C)c(-c4ccco4)c3c2N)c1,-25%
Fc1cc(F)c2nc(N3CCCCC3)sc2c1,-22%
CC1CCCC(C)N1/N=C/C=C/c1ccccc1[N+](=O)[O-] (configuration not stated),-10%
COCCN(Cc1ccco1)C(=O)Cn1ncc2c([nH]c3ccccc32)c1=O,-1%
COCCN(C(=O)CNC(=O)c1ccco1)C(C(=O)NC1CCCC1)c1ccccc1F (configuration not stated),14%
CN(C(=O)Cn1nc(C(=O)O)c2ccccc2c1=O)C1(C#N)CCCCC1,4%
CC(C)c1ccc(-c2c(C#N)c(N)nc(SCC(=O)N3CCCCCC3)c2C#N)cc1,-11%
C=C[C@@]1(C)CC[C@H](O)[C@H]2C(=O)CCC[C@@H]21,4%
Cc1ccc(-c2nc(C#N)c(N3CCC(C)CC3)o2)cc1,-2%
COc1ccc(CNC(=O)c2cc(-c3ccccc3OC)on2)cc1,5%
CC(=O)N1c2ccc(S(=O)(=O)NCC3CCC(C(=O)Nc4ccc(F)cc4)CC3)cc2CC1C (configuration not stated),10%
CCCCn1c(N)c(N(CC(C)C)C(=O)CSCc2cccc(C)c2)c(=O)[nH]c1=O,-13%
CCOc1cc(CNCCO)ccc1OCC(=O)NC(C)(C)C,17%
Cc1ccc(N2C(=O)[C@@H]3[C@H](C2=O)[C@H]2C=CC=NN2[C@@H]3C(=O)Nc2ccc(Cl)cc2)cc1,-20%
Cc1ccc(NS(=O)(=O)c2ccc(C)c(NC(=S)NCCN3CCOCC3)c2)c(C)c1,12%
COc1ccc2cc(C(c3nnnn3C3CCCC3)N3CCOCC3)c3nnnn3c2c1 (configuration not stated),12%
CCCCCOc1ccccc1C(=O)NCCCCCC(=O)O,18%
CCC(C)Nc1nc(N)c([N+](=O)[O-])c(NCc2ccccc2)n1 (configuration not stated),-9%
COc1cccc(OC)c1C(=O)Nc1ccc(N2CCN(C(=O)c3ccco3)CC2)cc1,11%
O=C1CN(C(=O)COC(=O)CCCOc2ccccc2)c2ccccc2N1,17%
# Next part.
SMILES,VDR inhibitor
C#CCCCCCCCCCCCC(O)CC(O)COC(C)=O (configuration not stated),?
CS(=O)(=O)N(CC(=O)NCc1ccccc1)c1ccc(Cl)cc1,-10%
COC(=O)c1ccc(NC(=O)c2ccccc2NS(=O)(=O)c2ccccc2)cc1,-17%
N#CC1=C(N)N2C(=C(C#N)C13CCN(Cc1ccccc1)CC3)Nc1ccccc12,-1%
CCN(CC(=O)NC1CCS(=O)(=O)C1)C(=O)C(c1ccccc1)c1ccccc1 (configuration not stated),8%
COc1ccc(N2C(=O)C3C(C2=O)C3(c2ccccc2)c2ccccc2)cc1 (configuration not stated),-1%
CCOC(=O)C1=C(N)Oc2cc(O)ccc2C1c1ccc(F)cc1F (configuration not stated),-1%
Cc1ccc(-c2cc(-c3ccc(C)o3)nc(N)c2C#N)cc1,?
Cc1cc(O)ccc1NC1=CC(=O)CC(C)(C)C1,3%
COc1ccc(CC(=O)Nc2cccc3ncccc23)cc1OC,-11%
CC(C)C1Cc2[nH]c(=O)c(C(=O)O)cc2CO1 (configuration not stated),-5%
Cc1ccc(C)c(S(=O)(=O)Nc2ccc(C(=O)NCC(c3ccco3)N3CCCCC3)cc2)c1 (configuration not stated),9%
CCCN(CCC)CCCNC(=O)Cn1cc2c(n1)-c1c(oc(C(=O)N3CCCC3)c1C)CC2,5%
O=C(Cc1ccccc1F)Nc1nc2ccccc2[nH]1,-9%
CN(C)c1ccc(/C=C/c2nc(-c3ccccc3O)n(-c3ccccc3)n2)cc1,-7%
COc1ccc(NC(=O)N(C)C[C@H]2Oc3c(NC(=O)c4ccncc4)cccc3C(=O)N([C@H](C)CO)C[C@@H]2C)cc1,-23%
Nc1cc(Cc2ccccc2)ccc1O,-13%
COc1cccc(CNC(=O)CCn2ccc3cc(S(=O)(=O)N4CCC(C)CC4)ccc32)c1,-14%
COc1cc(C(=O)OCC(=O)Nc2sccc2C(N)=O)cc(OC)c1OC,0%
CN(Cc1ccccc1)C(=S)NC(=O)c1cccs1,-6%
O=S1(=O)N=C2CCCN2C(c2ccc(F)cc2)N1 (configuration not stated),-5%
COc1ccc(C(C(=O)NC2CCCC2)N(C(=O)c2snc(-c3ccc(F)cc3)c2N)c2ccc(F)cc2)cc1 (configuration not stated),-2%
COc1ccc(OC)c(/C=N\NC(=O)CC(=O)NCCc2ccccc2)c1,-5%
CCCc1cc(-c2nc(-c3ccc(C)cc3)cs2)ccn1,-28%
CCN(CC)c1ccc2cc(C(C)=O)c(=O)oc2c1,12%
# Additional results:
SMILES,VDR inhibitor
COc1cccc(N/C(SC)=C(/C#N)C(N)=O)c1,7%
COc1cccc(CNC(=S)Nc2cccc(Cl)c2C)c1,-9%
O=c1nc(N2CCCC2)nc(N2CCCC2)[nH]1,-3%
O=C(CSc1nnc2[nH]c(=O)cc(-c3ccccc3)n12)Nc1ccc(OC(F)(F)F)cc1,-1%
CC(C)(C)c1ccc(NC(=O)CN2C(=O)NC(C)(C3CC3)C2=O)cc1 (configuration not stated),1%
CC(C)c1ccc(NC2CCCN(C(=O)c3ccc4nccnc4c3)C2)cc1 (configuration not stated),5%
CCOC(=O)c1c(NC(=O)COC(=O)CCCOc2ccc(OC)cc2)sc(C(=O)NC)c1C,-8%
Cc1ncc(CN2CCN(CCC(C)C)C(CCO)C2)s1 (configuration not stated),-20%
O=C1C(=O)N(C2CCN(C(=O)c3ccccc3F)CC2)CCN1Cc1ccc(F)cc1,15%
COCCNC(C)C(=O)Nc1ccc(Br)cc1 (configuration not stated),-6%
Cn1c(SCC(=O)Nc2nc3ccccc3s2)ncc(C(=O)Nc2ccccc2)c1=O,3%
COc1ccc(NC(=O)CN(c2ccccc2)S(=O)(=O)c2ccccc2)c(OC)c1,-5%
O=C1c2ccccc2C(=O)N1c1cccc(-c2nc3ccccc3o2)c1,4%
CCN(CC)S(=O)(=O)c1ccc(NC2c3ccccc3C(=O)N2Cc2ccc3c(c2)OCO3)cc1 (configuration not stated),4%
COC(=O)CN1C(=O)C(O)(CC(=O)c2ccc(C)cc2)c2cc(Br)ccc21 (configuration not stated),-27%
O=C(/C=C/c1ccc2c(c1)OCCCO2)c1ccc2ccccc2c1O,-18%
COc1ccc(NC(=O)C2CCCN(c3ncnc4c3nc3n4CCCCC3)C2)c(OC)c1 (configuration not stated),25%
COc1ccc(NC(=O)Cn2cc(C(=O)C3CCCCC3)c3ccccc32)cc1,21%
COc1ccc(NS(=O)(=O)c2ccc(Cl)c(NC(=O)c3ccccc3F)c2)cc1,-12%
CCOc1cc(/C=C(/C#N)C(=O)Nc2ccc(OC)cc2)ccc1OCc1ccc(C(=O)O)cc1,2%
Cc1cc(NC(=O)C2CC(c3ccc(F)cc3)=NO2)n(-c2ccccc2)n1 (configuration not stated),3%
Cc1cc2c(cc1S(=O)(=O)NCc1ccccc1Cl)OCCN2C,-16%&7%
COc1ccc(C(=O)NNC(=O)CSc2nnc(COc3ccc4ccccc4c3)n2C)cc1,0%
COc1ccc(C(=O)Nc2nc3ccccc3s2)c(OC)c1,?
NC(=O)c1ccc(N2CCCC2)nc1,11%
# More records follow.
SMILES,VDR inhibitor
CCC(=O)Nc1ccc(N2CCOCC2)c(S(=O)(=O)Nc2ccc(OC)cc2)c1,-6%
COc1cccc(Oc2coc3c(CN4CCOCC4)c(O)ccc3c2=O)c1,-12%
CCOC(=O)C1CCN(c2nc3c(S(=O)(=O)c4ccc(C)c(C)c4)nnn3c3ccc(Cl)cc23)CC1,-9%
O=C(CNC(=O)c1cc2c(s1)CCC2)Nc1ccccc1Br,-21%
Cc1cccc(NC(=O)Cn2cc(C(=O)C3CCCCC3)c3ccccc32)c1,3%
CN(C)c1cc(-c2ccc(Cl)cc2)oc(=O)c1Cl,6%
Cc1ccccc1CNCCSc1nnnn1C,7%
CC1=CC2(C#N)C3(N=C(N)C2(C#N)C(c2ccccc2)N1)OCCO3 (configuration not stated),13%
N#Cc1ccccc1NC(=O)CSc1ncn[nH]1,-7%
O=C(c1cc(Cl)ccc1O)N1CCN(S(=O)(=O)Cc2ccccc2)CC1,10%
CS(=O)(=O)N1CCN(c2ccccc2NC(=O)c2ccc(-c3ccc(Cl)cc3Cl)o2)CC1,-4%
CCCOc1ccc(C(=O)CCN2CCCCC2)cc1,40µM*
COc1ccccc1NC(=O)c1ccc(NC(=O)COC(=O)C2CCCO2)cc1 (configuration not stated),-9%
C/C(=N/NS(=O)(=O)c1ccc(F)cc1)c1ccncc1,-14%
CCN(CC(=O)Nc1c(F)cccc1F)C(=O)c1ccc(N2C(=O)c3ccccc3C2=O)cc1,-7%
CCc1c(C)c(C#N)c2nc3ccccc3n2c1NCC1CCCO1 (configuration not stated),1%
CCc1ccc(NC(=O)CSc2nc3c(c(=O)n(C)c(=O)n3C)n2C)cc1,9%
Cc1ccc(C(=O)Nc2c(C(=O)N3CCOCC3)cnn2-c2ccccc2)cc1,2%
COc1ccc(-c2noc(-c3ccc(NCCc4ccccc4)c([N+](=O)[O-])c3)n2)cc1OC,5%
C=CCn1c(-c2ccccc2)ccc(C#N)c1=O,-8%
Cc1ccc2cc(CN(Cc3ccc(F)cc3)Cc3nnnn3C3CCCC3)c(=O)[nH]c2c1,4%
O=C1OC(=O)c2cc([N+](=O)[O-])ccc21,-7%
CCc1ccc(N(CC)C(=O)c2ccc3c(=O)n4c(nc3c2)CCCCC4)cc1,-9%
CC(C)C(=O)N1CCC(n2nccc2NC(=O)CCOc2ccccc2)CC1,11%
COc1cccc(NC(=O)N[C@@H](Cc2ccccc2)C(=O)O)c1,-7%

# Filtered by structure: those above with fluorine.
SMILES,VDR inhibitor
Fc1cc(F)c2nc(N3CCCCC3)sc2c1,-22%
COCCN(C(=O)CNC(=O)c1ccco1)C(C(=O)NC1CCCC1)c1ccccc1F (configuration not stated),14%
CC(=O)N1c2ccc(S(=O)(=O)NCC3CCC(C(=O)Nc4ccc(F)cc4)CC3)cc2CC1C (configuration not stated),10%
CCOC(=O)C1=C(N)Oc2cc(O)ccc2C1c1ccc(F)cc1F (configuration not stated),-1%
O=C(Cc1ccccc1F)Nc1nc2ccccc2[nH]1,-9%
O=S1(=O)N=C2CCCN2C(c2ccc(F)cc2)N1 (configuration not stated),-5%
COc1ccc(C(C(=O)NC2CCCC2)N(C(=O)c2snc(-c3ccc(F)cc3)c2N)c2ccc(F)cc2)cc1 (configuration not stated),-2%
O=C(CSc1nnc2[nH]c(=O)cc(-c3ccccc3)n12)Nc1ccc(OC(F)(F)F)cc1,-1%
O=C1C(=O)N(C2CCN(C(=O)c3ccccc3F)CC2)CCN1Cc1ccc(F)cc1,15%
COc1ccc(NS(=O)(=O)c2ccc(Cl)c(NC(=O)c3ccccc3F)c2)cc1,-12%
Cc1cc(NC(=O)C2CC(c3ccc(F)cc3)=NO2)n(-c2ccccc2)n1 (configuration not stated),3%
C/C(=N/NS(=O)(=O)c1ccc(F)cc1)c1ccncc1,-14%
CCN(CC(=O)Nc1c(F)cccc1F)C(=O)c1ccc(N2C(=O)c3ccccc3C2=O)cc1,-7%
Cc1ccc2cc(CN(Cc3ccc(F)cc3)Cc3nnnn3C3CCCC3)c(=O)[nH]c2c1,4%

# Next results.
SMILES,VDR inhibitor
N/C(=N\NC(=O)c1cccc(F)c1)c1cc2ccccc2oc1=O,-10%
Cc1noc(C)c1-c1cncnc1NCc1ccccc1,?
CC1Cc2ccccc2N1C1=NS(=O)(=O)c2ccccc21 (configuration not stated),1%
Cc1ccc(Nc2ncc(C(=O)NCCCN3CCN(C)CC3)c3ccccc23)cc1Cl,-18%
COc1ccccc1-n1cnc2c(c1=O)c1nc3ccccc3nc1n2-c1ccc(C)c(C)c1,2%
CCN(CC)S(=O)(=O)c1ccc(NC(=O)C2CCCN(C(=O)c3ccc(Cl)cc3)C2)cc1 (configuration not stated),-8%
CC1CC(=O)Nc2ccccc2N1S(=O)(=O)c1ccc(C#N)cc1 (configuration not stated),8%
COc1ccc(NC(=S)N(CCCN2CCN(C)CC2)Cc2cccs2)cc1,-10%
COc1ccc(NC(=O)CCc2c(C)nc3c(-c4ccccc4)c(C)nn3c2C)cc1Cl,-14%
Cc1ccc(-c2csc(-c3c(N)c(C(=O)c4ccc5c(c4)OCO5)n4ccccc34)n2)cc1,10%
Cc1ccc(-c2cc(-c3ccc(F)cc3)n[nH]2)c(O)c1,-3%
CCN(CC)S(=O)(=O)c1ccc(N2CCN(C)CC2)c(NC(=O)Nc2ccccc2F)c1,-4%
CCOc1ccccc1CNC(=O)c1ccc(Cn2c(SCc3ccccc3)nc3cccnc32)cc1,8%
CCN1CCN(C(=O)c2cc3c(-c4ccc(Cl)cc4)nn(C)c3s2)CC1,-16%
CC(=O)Oc1ccc2c(=O)c(Oc3ccccc3)coc2c1OC(C)=O,-4%
O=C(O)Cn1c(=O)c2cccn2c2ccccc21,4%
O=S(=O)(c1cccc(Cl)c1)N1CCN(S(=O)(=O)c2ccc3c(c2)OCCO3)CC1,-21%
CCOC(=O)c1sc(NC(=O)CSc2nc(C)cc(C)c2C#N)c(C#N)c1C,-4%
